Compound activity: PubChem BioAssay, National Center for Advancing Translational Sciences (NCATS)
PINK1 expr mod: changes PINK1 expression | PINK1 immunofluorescence, high-content cytometry, 24 h | Potency, µM (highest dose often 76.6 µM), without a hit: top-dose activation (PINK1 increase), most hits filed as activators | hit rate 0.2% among 410,000 | AID 624263; active = well fitted activation curve with a large enough effect; inconclusive = small, poorly fitted or top-dose-only effect; inactive = flat fitted curve, though single readings scatter; cell line not stated here;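 also: potency is read from the fitted curve at half-maximal effect; % of control where 0% means no effect; nearly all actives have a fitted effect of over 65% in size; a mitochondrial uncoupler was the plate control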
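Decision-based qHTS: stable cells, 24 h exposure to five compound concentrations, CCCP as control. Fixed cells stained for PINK1 plus nuclear, mitochondrial and cell markers, cytometer read.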
CtBP-E1A inh: blocks the CtBP interaction with E1A. hit rate 0.49% among 340,000. AlphaScreen GST-E1A/His-CtBP binding, 1536-well; active compounds read low; control for the full effect not named in the record. activity change, % (concentration not given with the values); in the data active means activity change below about -65%; inconclusive means about -30% to -65%; inactive means above about -30%; also: % is scaled to controls: 0 for no effect and ±100 for the full control effect
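GST-E1A and His-tagged CtBP (125 nM each as 5X stock) were preincubated with pin-transferred compound for 2 h at 37 °C in the dark, then glutathione donor and nickel acceptor beads were added for 1 h before AlphaScreen reading.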
Sfp inh: Sfp phosphopantetheinyl transferase inhibition; Biochemical Sfp PPTase activity, qHTS; Potency, µM, for inactives: max response, negative = inhibition, most hits filed as inhibitors; hit rate 3.5% among 310,000; active = well fitted inhibition curve with a large enough effect; inconclusive = small, poorly fitted or top-dose-only effect, or another doubt; inactive = no such curve, though single readings can be large or run the other way;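 also: the enzyme is Sfp with the accession as filed and its product quenches rhodamine fluorescence; potency is read from the fitted curve at half-maximal effect; 0% = enzyme reaction without inhibitor and -100% = no enzyme wells; top concentration of the series not given in the record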
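Step 1, compound plus 15 nM Sfp-PPTase, 15 min, room temperature. Step 2, add rhodamine-CoA (5 uM) and BHQ-2-YbbR (12.5 uM). Step 3, read 525/598 nm fluorescence at 0 and 30 min.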
Six1-Eya2 blk: Six1/Eya2 interaction inhibition | AlphaScreen GST-Six1/His-Eya2 binding, biochemical; active compounds read low; control for the full effect not named in the record | activity change, % (no concentration beside the values) | hit rate 0.56% among 360,000; in the data active = activity change below about -65%; inconclusive = about -30% to -65%; inactive = above about -30%; also: % is scaled to controls: 0 for no effect and ±100 for the full control effect
Target sequence (O00167 whole entry, looked up): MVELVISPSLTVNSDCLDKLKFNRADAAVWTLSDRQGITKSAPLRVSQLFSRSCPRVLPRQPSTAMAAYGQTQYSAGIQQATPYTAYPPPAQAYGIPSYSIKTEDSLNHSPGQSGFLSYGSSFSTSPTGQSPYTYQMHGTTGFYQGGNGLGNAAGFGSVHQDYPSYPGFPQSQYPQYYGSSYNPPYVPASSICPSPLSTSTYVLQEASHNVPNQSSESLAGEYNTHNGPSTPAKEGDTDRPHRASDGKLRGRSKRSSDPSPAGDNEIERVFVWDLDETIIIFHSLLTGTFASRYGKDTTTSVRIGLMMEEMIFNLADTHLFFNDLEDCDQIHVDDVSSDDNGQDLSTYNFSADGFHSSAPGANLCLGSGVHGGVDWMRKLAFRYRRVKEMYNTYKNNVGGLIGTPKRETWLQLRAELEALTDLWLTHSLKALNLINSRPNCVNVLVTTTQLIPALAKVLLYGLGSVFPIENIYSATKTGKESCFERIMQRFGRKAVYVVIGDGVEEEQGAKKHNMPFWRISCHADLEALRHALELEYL
Target sequence (Q15475 whole entry, looked up): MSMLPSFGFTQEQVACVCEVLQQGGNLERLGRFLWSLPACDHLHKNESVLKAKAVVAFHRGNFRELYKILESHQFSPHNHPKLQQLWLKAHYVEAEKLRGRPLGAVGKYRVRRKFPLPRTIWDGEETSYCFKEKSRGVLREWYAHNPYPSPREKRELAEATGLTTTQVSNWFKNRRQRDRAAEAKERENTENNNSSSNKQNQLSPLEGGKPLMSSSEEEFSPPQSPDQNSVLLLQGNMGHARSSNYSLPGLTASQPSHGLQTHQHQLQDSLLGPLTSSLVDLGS
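Six1/Eya2 binding was read as AlphaScreen signal after compounds were pinned into GST-Six1 plus His-tagged Eya2 (5X stock 250/500 nM) in pH 8.0 Tris/NaCl/TCEP buffer, beads added, then incubated 1 h, 37 C, dark.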
D2 potentiator: human D2 receptor positive allosteric modulation. DiscoveRx D2 beta-arrestin cells, luminescence, 90 min; 100% = 57 uM dopamine signal. potentiation, % (test concentration not listed). hit rate 0.23% among 360,000; active = potentiation of 50% or more; inconclusive = 30% to 50%; inactive = 30% or less;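 also: compound concentration not given in the record; tested on top of an EC20 dose of dopamine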
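PathHunter D2 cells, attached overnight at 37 deg C, received compound in DMSO plus dopamine at EC20 (50 nM final) for 90 min at 37 deg C. Beta-arrestin recruitment was read as luminescence after 1 h with detection reagent at ambient temperature.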
TRPV1 PAM: enhances activation of the human vanilloid receptor TRPV1. hit rate 0.02% among 320,000. AID 540277. TRPV1-expressing cells, Fluo-8 calcium influx, capsaicin EC20 potentiation; host cell line not named in the record; control for the full effect not named in the record. Q8NER1. potentiation, % at 8.33 µM; active means potentiation above 80%; inconclusive means 30% to 80%; inactive means below 30%; also: 0% is about no effect
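Fluo-8 calcium influx in TRPV1-expressing cells, kinetic read (ex 480/em 520 nm). Compound added and read 3 min for agonist activity, followed by capsaicin at EC20 final and 2 min further read for enhancement.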
D2 ag: human D2 receptor agonism in beta-arrestin assay; DiscoveRx PathHunter D2 beta-arrestin, luminescence, 90 min; 100% = 57 uM dopamine signal; activation, % (no concentration beside the values); hit rate 0.084% among 360,000; AID 624465; in the data active = activation above about 40%; inconclusive = about 15% to 40%; inactive = below about 15%; also: compound concentration not given in the record; the text of the record calls up to 30% inactive
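Agonist mode: compounds alone added to overnight-plated D2 PathHunter cells for 90 min at 37 C, with 57 uM final dopamine (EC100) defining full response. Beta-arrestin recruitment detected by chemiluminescent reagent, read after 1 h at ambient temperature.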
An asterisk follows results filed as active; u = inconclusive; x = no result given; & = joins results of further samples; [ ] = remark or other dose. Rows were taken by chance; any-hit rate near 3.7%.

SMILES	PINK1 expr mod	CtBP-E1A inh	Sfp inh	Six1-Eya2 blk	D2 potentiator	TRPV1 PAM	D2 ag
Cc1ccc(S(=O)(=O)N2CCC(C(=O)N/N=C/c3cccn3C)CC2)cc1	0.1%	-8	x	-8	-18	x	-5.5
N#Cc1ccc(CN2CCN(CC(=O)Nc3ccccc3C(=O)NC3CC3)CC2)cc1	-1.8%	2	x	7	-3	-5	-4.4
COc1ccccc1CNc1nc(Nc2ccccc2-n2cccn2)c2sccc2n1	9.4%	0	x	-10	-11	x	-4.4
CCOc1ccc(C(c2c(C)[nH][nH]c2=O)c2c(C)[nH][nH]c2=O)cc1OC	-0.7%	-5	5%	-3	0	7	-0.4
CC1CCCCC1NC(=O)Cn1cc([N+](=O)[O-])ccc1=O (stereo unspecified)	0.3%	x	x	7	-4	-14	4.2
CCOC(=O)C1CCN(C(=O)NS(=O)(=O)c2ccc(C)cc2)CC1	-1.6%	3	2%	-5	-3	-1	3.3
CN(CC(=O)Nc1ccccc1C(F)(F)F)C(=O)c1cc2c(s1)CCCCC2	-3.3%	-13	x	3	-9	3	5.6
O=C1C2CCCN2C(c2ccc(Cl)cc2)N1c1nccs1 (stereo unspecified)	3.0%	0	1%	-1	3	3	0.0
CN(C)S(=O)(=O)c1ccc(N2CCCC2)c(C(=O)N2CCN(c3ccc([N+](=O)[O-])cc3)CC2)c1	-0.3%	x	6%	11	-8	-2	2.8
Cc1cccc2c1c(N=NC(N)=S)c(O)n2C1OC(CO)C(O)C(O)C1O (stereo unspecified)	0.8%	8	50µM*	1	-16	7	-3.6
Cc1cccc(NC(=O)CC(C)S(=O)(=O)c2ccc3c(c2)NC(=O)CO3)c1C (stereo unspecified)	1.2%	x	3%	2	-1	-9	2.5
O=S1(=O)CCN(C2CCCCCC2)CC1	-0.6%	0	x	10	-9	x	-5.6
Cc1ccc2nc(Cl)c(C3CC(c4cccs4)=NN3S(C)(=O)=O)cc2c1 (stereo unspecified)	1.5%	x	0%	-10	-9	0	2.0
COC(=O)C1C(=O)NCC1c1ccccc1 (stereo unspecified)	-0.8%	-2	4%	2	-3	0	-2.9
O=S(=O)(c1ccc(F)cc1)N1CCN=C1SCc1cccnc1	0.1%	x	17%	-2	-7	6	0.3
CCOC(=O)Nc1ccc(S(=O)(=O)Nn2cnnc2)cc1	-0.5%[38.3 µM]	3	14%	6	-19	3	-1.4
O=C(NC(=O)N1CCN(c2ccc(F)cc2)CC1)c1ccccc1	1.8%[38.3 µM]	-16	-16%	0	-10	2	-1.7
COc1cc(S(=O)(=O)N(C)C)ccc1Br	3.4%[38.3 µM]	1	16%	2	-22	10	-4.3
CC1CN(C(=S)SCC(=O)c2ccc(Cl)cc2)CC(C)O1 (stereo unspecified)	-0.5%	6	-7%	-3	-14	-10	0.8
CC(=O)OCC1OC(n2c3c(cc(C#N)c2=S)CCCC3)C(OC(C)=O)C(OC(C)=O)C1OC(C)=O (stereo unspecified)	15%	-8	x	-2	-17	x	0.1
CC(=O)c1ccc(-n2nncc2-c2ccc([N+](=O)[O-])cc2)cc1	2.1%	-20	8%	5	-2	-21	0.0
CC1(C(=O)NS(=O)(=O)c2ccc(Br)cc2)CCN1C(=O)CC1CCCCC1 (stereo unspecified)	1.1%	-8	x	4	1	x	0.9
CCOc1cc(C=NN=C2c3ccccc3-c3ccccc32)ccc1O	-2.2%	u	x	u	-21	x	-8.3
Cc1ccccc1-n1nnnc1SCC(=O)NCC1CCCO1 (stereo unspecified)	0.0%	1	25%	14	-6	-13	2.5
C=CCC[C@H](Cc1ccc(F)cc1)C(=O)OC[C@@H](C)NC(=O)[C@H](CC=C)CC(=O)NCCO	0.5%	x	x	9	-3	x	0.1

In the list so far, these have bromine:
SMILES	PINK1 expr mod	CtBP-E1A inh	Sfp inh	Six1-Eya2 blk	D2 potentiator	TRPV1 PAM	D2 ag
COc1cc(S(=O)(=O)N(C)C)ccc1Br	3.4%[38.3 µM]	1	16%	2	-22	10	-4.3
CC1(C(=O)NS(=O)(=O)c2ccc(Br)cc2)CCN1C(=O)CC1CCCCC1 (stereo unspecified)	1.1%	-8	x	4	1	x	0.9

(further entries)
SMILES	PINK1 expr mod	CtBP-E1A inh	Sfp inh	Six1-Eya2 blk	D2 potentiator	TRPV1 PAM	D2 ag
O=C1CSC(c2nn(-c3ccccc3)cc2-c2cc3ccccc3oc2=O)N1Cc1ccco1 (stereo unspecified)	2.7%[38.3 µM]	-18	-4%	-17	-8	0	-3.1
CN[C@H]1C[C@H]2c3cc(Oc4ccccc4C)ccc3CCN2C(=O)[C@H]1[C@H](C)O	-0.1%	-12	x	-4	2	x	4.0
CC(C)c1c(C(=O)N/N=C/c2ccc(OCc3ccc(F)cc3)cc2)nnn1-c1nonc1N	8.7%	6	9%	0	-1	14	9.8
O=C(Nc1ccc(Cl)c([N+](=O)[O-])c1)ONC1=NCCCCC1	0.8%	-9	12%	3	54*	12	u
CN(CCCC(=O)NCc1ccco1)S(=O)(=O)c1ccccc1	-1.6%[38.3 µM]	5	13%	2	0	-5	0.7
C=CCc1cc(Cl)ccc1OCCN1CC(C)OC(C)C1 (stereo unspecified)	7.8%	-6	-24%	2	-17	10	-2.1
CC(=O)Nc1ccc(NS(=O)(=O)c2ccc(C)cc2)c([N+](=O)[O-])c1	-2.1%	12	-2%	5	-35	6	-3.3
CN1CCN(c2ccc(NC(=O)c3ccc4c(c3)OCCO4)cc2)CC1	0.1%	5	21%	-3	-12	3	0.1
COc1c(Cl)cc(Cl)cc1/C=C/C(=O)c1ccc(NC(=O)c2cccs2)cc1	-2.5%	1	11%	-2	-10	-5	-5.8
CC(=O)Nc1ccc(NC(=O)C(C)Sc2nnc(-c3cccs3)o2)cc1 (stereo unspecified)	0.8%	5	0%	0	-8	-3	-1.5
CCc1ccc(CNC(=O)C2CC(=O)N(CCc3ccc(C)cc3)C2)cc1 (stereo unspecified)	-4.3%[38.3 µM]	-16	u	-5	-7	-3	-2.1
CCOc1cc(C(=S)N2CCCCC2)ccc1OCC(=O)NCc1ccccc1	0.3%[38.3 µM]	-7	-19%	-3	-14	-10	-2.1
CCN(CC)C(=O)CSc1nnc(-c2ccccc2)n1N	-1.9%	2	0%	4	-7	-1	-2.5
COc1ccc(C)cc1N(C(=O)c1ccc(F)cc1)c1nc2ccccc2s1	9.9%	-5	-8%	-12	-17	-7	-3.0
CC1CC(C)CN(C(=O)Cn2cc(C=O)c3ccccc32)C1 (stereo unspecified)	3.8%	-3	16%	5	-8	5	-6.2
CC(C)(C)c1ccc(NC(=S)NCCc2ccccn2)cc1	-2.3%	4	-10%	0	-17	-3	-4.3
Cc1ccc(OCC(=O)O/N=C(\N)Cc2cccs2)cc1C	-1.2%	79	x	83	-4	x	-1.5
COc1ccc2c(C(=O)NCc3ccc4c(c3)OCO4)c(-c3ccc(S(C)(=O)=O)cc3)sc2c1	2.8%	-8	x	5	-3	x	5.1
CN(C)/C=C(/C(=O)c1ccc(Cl)cc1Cl)S(=O)(=O)c1ccccc1	0.6%	0	15%	0	5	6	4.1
O=C(Nc1ccccc1)OC(CN1CCCCC1)C(F)(F)F (stereo unspecified)	3.1%	3	8%	11	-19	-9	-0.9
Cc1cccc(NC(=O)CSc2nnc(-c3cc(C)[nH]n3)n2N)c1	0.5%	-1	8%	0	-4	13	0.8
CC(C)OP(=O)(OC(C)C)C(O)c1ccc(N(C)C)cc1 (stereo unspecified)	-0.5%	13	15%	27	-5	9	-4.6
CC(C)(O)/C=C/C[C@](C)(O)C1CC[C@]2(C)C1[C@H](O[C@H]1O[C@@H](CO)[C@H](O)[C@@H](O)[C@@H]1O)CC1[C@@]3(C)CC[C@H](O)C(C)(C)C3[C@@H](O)C[C@]12C (stereo partly specified)	0.0%	2	x	-2	-13	x	2.6
COc1ccc(N2CCN(C(=O)c3cccs3)CC2)cc1	-0.6%	2	8%	-5	1	-29	-1.9
O=C(NCc1ccccc1)C1CC2CCCC(C1)C2=O (stereo unspecified)	15%[38.3 µM]	49	12%	22	-6	-3	-1.2

Entries of single compounds as entered above. Order of values: PINK1 expr mod, CtBP-E1A inh, Sfp inh, Six1-Eya2 blk, D2 potentiator, TRPV1 PAM, D2 ag
Shown for `CCN(CC)C(=O)CSc1nnc(-c2ccccc2)n1N` : -1.9%, 2, 0%, 4, -7, -1, -2.5
Shown for `O=C(NCc1ccccc1)C1CC2CCCC(C1)C2=O` (stereo unspecified) : 15%[38.3 µM], 49, 12%, 22, -6, -3, -1.2

By substructure, the entries above containing a CF3 group (two)
SMILES	PINK1 expr mod	CtBP-E1A inh	Sfp inh	Six1-Eya2 blk	D2 potentiator	TRPV1 PAM	D2 ag
CN(CC(=O)Nc1ccccc1C(F)(F)F)C(=O)c1cc2c(s1)CCCCC2	-3.3%	-13	x	3	-9	3	5.6
O=C(Nc1ccccc1)OC(CN1CCCCC1)C(F)(F)F (stereo unspecified)	3.1%	3	8%	11	-19	-9	-0.9

D2 potentiator: entries above that show a hit.
Molecule | PINK1 expr mod | CtBP-E1A inh | Sfp inh | Six1-Eya2 blk | D2 potentiator | D2 ag
O=C(Nc1ccc(Cl)c([N+](=O)[O-])c1)ONC1=NCCCCC1 | 0.8% | -9 | 12% | 3 | 54* | u

(more compounds)
SMILES	PINK1 expr mod	CtBP-E1A inh	Sfp inh	Six1-Eya2 blk	D2 potentiator	TRPV1 PAM	D2 ag
Cn1c(CCc2ccccc2)nnc1SCC(N)=O	-0.7%	-15	12%	1	-24	-2	3.0
O=C(NCc1ccccc1)C1Cc2c(-c3ccc4c(c3)OCO4)ccnc2O1 (stereo unspecified)	3.1%	-1	x	-8	-5	x	-2.9
CC(C)S(=O)(=O)c1csc(NC(=O)Nc2cc(Cl)ccc2Cl)c1Cl	u	1	-1%	-9	-11	3	-3.4
CCCC(CCC(=O)NC1CCCCC1)C(=O)O (stereo unspecified)	x	3	12%	9	-8	7	0.5
O=C(CCc1nc(-c2ccccc2)c(-c2ccccc2)o1)OCc1ccc(Br)cc1	-1.2%[38.3 µM]	26	0%	23	-14	12	-4.0
COc1ccc(CCNC(=O)c2ccc3c(c2)N(Cc2ccc(F)cc2)CCS3)cc1OC	0.4%&-1.2%	-20	-10%	0	4	-3	0.8
CC(=O)Nc1ccc(NC(=O)CCC(=O)OCC(=O)c2ccc(C)c([N+](=O)[O-])c2)cc1	-0.2%	-2	1%	-6	-20	2	-7.0
O=C(Cn1cnc2ccccc2c1=O)N/N=C/c1ccc(Br)cc1	11%	-22	u	-4	-3	6	-3.5
